Rango-impB inh: qHTS Assay for Inhibitors of Rango (Ran-regulated importin-beta cargo) - Importin beta complex formation | Rango CFP/YFP FRET sensor + importin beta, 45 min | Potency, µM (highest dose often 92.2 µM), inactives show top-dose inhibition of complex formation | 340,000 compounds, 0.031% hits; active = rising FRET ratio curve, often small or poorly fitted; inconclusive = mostly compound fluorescence or quenching in the first reads; inactive = flat curves in all reads;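 also: potency is read from the fitted curve at half-maximal effect; 0% = DMSO wells and 100% = buffer wells lacking importin beta; nearly all actives have a fitted effect of over 15% in size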
Target sequence (Q14974 whole entry, looked up): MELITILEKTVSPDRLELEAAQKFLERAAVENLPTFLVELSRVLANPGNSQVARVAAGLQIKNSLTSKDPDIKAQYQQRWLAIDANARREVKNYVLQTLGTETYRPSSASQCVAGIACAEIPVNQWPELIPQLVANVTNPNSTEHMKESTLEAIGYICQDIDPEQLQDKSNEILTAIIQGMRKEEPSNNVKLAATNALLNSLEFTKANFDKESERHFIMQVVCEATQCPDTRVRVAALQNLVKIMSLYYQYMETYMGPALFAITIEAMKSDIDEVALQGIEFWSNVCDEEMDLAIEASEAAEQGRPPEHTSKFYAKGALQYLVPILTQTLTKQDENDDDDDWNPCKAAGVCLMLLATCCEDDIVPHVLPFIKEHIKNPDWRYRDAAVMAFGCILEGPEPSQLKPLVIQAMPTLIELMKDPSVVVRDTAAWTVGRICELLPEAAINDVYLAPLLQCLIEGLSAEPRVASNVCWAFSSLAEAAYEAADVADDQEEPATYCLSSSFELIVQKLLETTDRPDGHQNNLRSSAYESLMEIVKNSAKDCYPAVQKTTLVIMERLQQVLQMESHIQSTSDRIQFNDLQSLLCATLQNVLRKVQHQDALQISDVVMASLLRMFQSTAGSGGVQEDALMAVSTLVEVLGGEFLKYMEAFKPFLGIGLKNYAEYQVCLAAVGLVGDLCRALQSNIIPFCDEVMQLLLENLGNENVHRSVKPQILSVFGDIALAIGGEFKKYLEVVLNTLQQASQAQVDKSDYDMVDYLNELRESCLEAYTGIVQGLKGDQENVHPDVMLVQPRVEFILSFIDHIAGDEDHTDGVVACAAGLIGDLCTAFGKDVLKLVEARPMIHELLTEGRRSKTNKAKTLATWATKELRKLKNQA
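Inhibition scored from the CFP 486 nm/YFP 530 nm FRET ratio 45 min after adding 0.125 microM importin beta to 50 nM Rango biosensor preincubated 5 min with compound (room temperature, PBS with DTT, Tween-20, BSA). No-importin wells as positive control.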
Rango release inh: qHTS Assay for Inhibitors of RanGTP induced Rango (Ran-regulated importin-beta cargo) - Importin beta complex dissociation; Snurportin-1 (Homo sapiens) + GTP-binding nuclear protein Ran (Homo sapiens) + Importin …; Biochemical FRET Rango-importin beta, RanGTP-induced dissociation; Potency, µM (series often up to 46.1 µM), for inactives: at the highest dose activity change, negative = inhibition; 340,000 compounds, 0.071% hits; active means falling FRET ratio curve, often poorly fitted, with flat reads before Ran was added; inconclusive means other falling curves, or compound fluorescence or quenching; inactive means flat or rising ratio curve;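 also: potency is read from the fitted curve at half-maximal effect; % of control where 0% means no effect; nearly all actives have a fitted effect of over 45% in size; -100% = wells without RanGTP and RCC1; the record marks most hits as doubtful in a second field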
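Rango FRET biosensor (snurportin-1 IBB flanked by N-terminal EYFP and C-terminal CFP10) at 0.1 uM, with 0.25 uM importin beta in PBS, 1mM DTT, 0.02% Tween-20, 0.1% BSA. 0.6 uM Ran, 2mM GTP and 0.2 uM RCC1 were then added for 45 min at room temperature. Inhibition read as loss of FRET rise.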
miR-21 reporter: qHTS Assay for Modulators of miRNAs and/orActivators of miR-21. HeLa miR-21 FLuc reporter, luciferase, 48 h. Potency, µM (doses to about 38.3 µM), for the others: at the top dose reporter change, positive = more light. 340,000 tested, under 10 active. AID 2288, 2010; active = well fitted rising curve with a large enough effect; inconclusive = small, poorly fitted or top-dose-only effect; inactive = no such curve, though single readings can be large or run the other way;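 also: % of control where 0% means no effect; miR-21 action dims this reporter so a rising signal means less miR-21 action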
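Luminescence from a firefly luciferase reporter carrying a miR-21 binding site downstream, stably expressed under a CMV promoter in HeLa cells that make miR-21 endogenously, reports miRNA modulation after 48 h compound exposure up to approximately 40uM final.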
GLA inh pH 4.5: qHTS Assay for Inhibitors of Human alpha-Galactosidase at pH 4.5; 230,000 tested, under 10 active; Alpha-galactosidase A (Homo sapiens), P06280; activity change, negative = inhibition, % at 105 µM; purified enzyme, 4-MU-alpha-Gal fluorescence, pH 4.5; inconclusive = small, poorly fitted or top-dose-only inhibition, or a rising curve; inactive = flat fitted curve, though single readings scatter; no compound was filed as active;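 also: 0% = full activity with enzyme and -100% = basal without enzyme; dose as in the result columns while the protocol names 77 µM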
The depositor's hits bear a star; ? = inconclusive; nt = not tested or not shown.

SMILES | Rango-impB inh | Rango release inh | miR-21 reporter | GLA inh pH 4.5
COc1ccc(CC(=O)N2CCN(c3cccc(C)c3C)CC2)cc1 | 3.2% | -1.2% | -2.0% | nt
CCOc1ccc(N(CC(=O)Nc2ccccc2OC)S(=O)(=O)c2ccccc2)cc1 | -1.3% | -13.1% | 19.7% | nt
Cc1cccc(Oc2cc(NC(=O)Cn3cnc([N+](=O)[O-])n3)cc([N+](=O)[O-])c2)c1 | 0.1% | -16.9% | ? | 2.3
COc1ccccc1N1CCN(C2CCCN(C(=O)c3ccoc3)C2)CC1 (stereo not given) | -0.7% | 8.9% | -3.9% | nt
COc1cc(C(=O)NNC(=O)c2cc(=O)[nH]c3ccccc23)cc(OC)c1OC | -1.0% | -9.9% | nt | nt
CCN(CC)CCNC(=O)c1ccc(NC(=O)Cc2cccc3ccccc23)cc1 | 0.3% | -1.3% | -11.1% | nt
CCc1ccc(-n2nnnc2SCC(=O)Nc2ccc(NC(C)=O)cc2)cc1 | 0.4% | 11.0% | 6.1% | nt
C(=N\c1nc2ccccc2[nH]1)/c1cccs1 | -7.0% | -8.1% | -5.1% | 10.4
C#CCOC(=O)Nc1cnccc1C(F)(F)F | 0.0% | -15.6% | -0.7% | -3.0
Cc1ccc(Oc2coc3cc(O)ccc3c2=O)cc1 | 3.8% | -8.5% | -46.4% | nt
O=C1CCCN1CCCNC(=S)Nc1ccc(F)cc1 | 2.7% | 7.2% | 4.9% | 5.8
CC(=O)Nc1ccc2c(c1)N(S(=O)(=O)c1cccs1)CCC2 | 1.8% | -7.2% | nt | nt
Cc1c(NS(=O)(=O)c2ccc3c(c2)NC(=O)CC(=O)N3)cccc1[N+](=O)[O-] | 1.2% | -2.4% | 1.0% | nt
COc1cc(=O)oc(CCC(C)O)c1C (stereo not given) | 3.5% | -0.2% | nt | nt
CCOC(=O)C1C(=O)CC(C)(O)C(C(=O)OCC)C1c1ccco1 (stereo not given) | 0.4% | -13.9% | 1.9% | 0.0
O=C1NCCN/C1=C\C(=O)c1ccc(Cl)cc1 | 0.4% | -11.0% | -42.3% | -14.3
C=CCOC(=O)C(C(=O)Cc1ccccc1)c1ccccc1 (stereo not given) | -0.1% | 13.2% | nt | nt
CCCn1cnc2sc(CC)cc2c1=O | -0.6% | -10.7% | -36.7% | 0.5
CSc1nc(-c2ccc(Cl)cc2)nc(N)c1C#N | 3.1% | 9.3% | 5.7% | 6.5
Cc1cc(C)cc(NC(=S)NCCN(C2CCCCC2)C2CCCC2)c1 | 0.7% | -2.7% | 27.3% | -11.8
CCOc1ccc(C2C(C(=O)c3ccco3)=C(O)C(=O)N2CCN(C)C)cc1 (stereo not given) | nt | nt | -4.9% | -3.8
COC(=O)c1[nH]c(C)c(/C(O)=C2\C(=O)C(=O)N(CCN(C)C)C2c2cccc(OC)c2OC)c1C (stereo not given) | -1.4% | -8.4% | -2.3% | -5.5
CC1CC(CC(=O)NC(=S)Nc2ccccc2Cl)C(=O)O1 (stereo not given) | 1.2% | 1.2% | -4.3% | 7.6
CCOc1ccccc1C1NC(=O)c2ccccc2N1 (stereo not given) | -1.0% | 23.9% | nt | nt
Cc1c(N=C/C=C/c2ccccc2)c(=O)n(-c2ccccc2)n1C | 1.0% | -13.6% | 0.5% | 10.5
Cc1cccc(C)c1N1C(=O)CN(Cc2ccccc2)C1=S | 3.5% | 15.7% | -7.1% | nt
Cc1ccc(NC(=O)CSc2nnc(Cc3csc(C)n3)o2)cc1 | -3.2% | -1.9% | nt | nt
COC(=O)c1cnc(Nc2ccc(Cl)cc2)c([N+](=O)[O-])c1 | -2.5% | -3.1% | -0.1% | 1.2
CCc1ccccc1N1C[C@@]23C=C[C@@H](O2)C(C(=O)OCC(C)C)[C@H]3C1=O (stereo not given in full) | -2.3% | 0.4% | -1.2% | 8.5
Nc1c(C(=O)N2CCCCC2)sc2nc3c(cc12)CCCC3 | ? | -16.5% | -69.8% | nt
COc1ccc(/C(C)=N/NC(=O)CN(c2ccc(OC)cc2)S(=O)(=O)c2ccccc2)cc1 | -0.7% | 7.6% | 3.1% | nt
COc1ccc(-c2nn(CC(=O)Nc3ccc(Cl)c(Cl)c3)c(=O)c3ccccc23)cc1 | -0.6% | 2.8% | -6.6% | 3.1
COc1ccc(C2CC(c3ccc(C)o3)=NN2C(C)=O)cc1 (stereo not given) | 1.6% | 11.6% | -74.4% | 0.3
COc1ccc(-n2nc(C)c3c(=O)c4c([nH]c32)CCCC4)cc1 | -1.0% | 3.2% | -1.7% | nt
CCC(CC)C(=O)N1CCN(c2ccccc2)CC1 | -5.0% | 5.2% | -1.5% | 1.5
Cc1cccc(CCNC(=O)CN(C)S(=O)(=O)c2cnc[nH]2)c1 | 1.9% | 1.8% | -20.5% | -19.0
CCCc1cc(C(=O)Nc2sc3c(c2C(=O)OCC)CCCC3)no1 | 4.4% | -6.8% | -3.9% | 6.4
O=C(CSc1nnc(Cc2ccccc2)o1)Nc1ccccc1 | -0.5% | -6.0% | 1.1% | -10.9
CN1CCN(C(=O)c2cccc(S(=O)(=O)N3CCCC3)c2)CC1 | 0.2% | -5.3% | nt | nt
COC(=O)c1cc2c(n(-c3ccccc3)c1=O)CCCC2=O | 2.4% | 3.8% | nt | nt
O=C1C=C(Nc2cccc(O)c2)CC(c2ccco2)C1 (stereo not given) | ? | 11.6µM* | -6.2% | -3.0
CCn1c(=S)sc2c(=O)n(CC(=O)Nc3cccc(Br)c3)c(C)nc21 | 0.6% | 24.1% | 8.7% | nt
O=C(CCc1nnc(CCCc2ccccc2)o1)NCCCC1CCCC1 | 5.3% | -5.0% | -42.6% | -8.6
COc1ccc(C(=O)NNc2cc(C)nc(NNC(=O)c3ccc(OC)cc3)n2)cc1 | 1.1% | 8.8% | -7.7% | -5.6
CC(C)CN(C(=O)CSc1nnc(C2CC2)n1-c1ccccc1)C1CCS(=O)(=O)C1 (stereo not given) | -3.8% | -11.8% | nt | nt
N/C(=N\OC(=O)CCCc1ccccc1)c1cccnc1 | 1.3% | -10.4% | -42.1% | -7.2
CC(=O)Nc1ccc(S(=O)(=O)NC(C)c2ccncc2)cc1 (stereo not given) | 0.0% | 10.3% | nt | nt
CCOC(=O)C1CCN(S(=O)(=O)c2ccc(OC)c(C(=O)N3CCCCCC3)c2)CC1 | 0.5% | -9.3% | -1.4% | nt
COCC1CCCN(C(=O)c2cc(COc3ccc(C(C)=O)cc3)on2)C1 (stereo not given) | 3.5% | 2.9% | nt | nt
O=C(NN=C1CCN(Cc2ccccc2)CC1)c1cccc(S(=O)(=O)Nc2ccccc2Cl)c1 | 0.6% | -0.9% | -7.5% | 5.6
Cc1ccc2c(c1)N(CC(=O)N1CCCCCC1)C(=O)C(C)O2 (stereo not given) | 0.6% | -1.1% | -0.4% | nt
Cc1noc(C)c1S(=O)(=O)N(CC(=O)N1CCn2c1nc1ccccc12)c1ccc(C(C)C)cc1 | 1.2% | 12.4% | -0.3% | -3.7
Cc1cc(C)cc(NC(=O)c2sc3nc4n(c(=O)c3c2C)CCC4)c1 | -0.5% | -6.4% | -0.4% | nt
CN(C)S(=O)(=O)c1ccc(N2CCCC2)c(C(=O)N2CCN(S(=O)(=O)c3ccc(F)cc3)CC2)c1 | -1.1% | -0.1% | nt | nt
COc1ccc(-n2ncc3c2CC(C)(C)CC3NC(=O)CCN2CCCCC2=O)cc1 (stereo not given) | 3.4% | 25.2% | 7.0% | nt
COc1ccc([C@H]2CC(=O)C=C(c3ccc(OC)c(OC)c3)C2)cc1 | ? | 0.5% | nt | nt
COCC(=O)OCC(=O)Nc1cc([N+](=O)[O-])ccc1Cl | 0.8% | 1.3% | -2.3% | 7.1
CCN(CC)CCCC(C)n1c2nc(=O)[nH]c(=O)c-2nc2cc(Cl)ccc21 (stereo not given) | ? | ? | nt | nt
COc1cc(CN2CCCC(C(=O)c3ccc4c5c(cccc35)CC4)C2)cc(OC)c1O (stereo not given) | -3.8% | 12.5% | -0.5% | 3.2
Cc1nnc(NC2=NCCC2)s1 | -5.2% | 9.9% | -8.0% | 9.9

Ordered by length of the SMILES (highest first): part of the list above.
SMILES | Rango-impB inh | Rango release inh | miR-21 reporter | GLA inh pH 4.5
Cc1cc(C)cc(NC(=O)c2sc3nc4n(c(=O)c3c2C)CCC4)c1 | -0.5% | -6.4% | -0.4% | nt
Cc1ccc2c(c1)N(CC(=O)N1CCCCCC1)C(=O)C(C)O2 (stereo not given) | 0.6% | -1.1% | -0.4% | nt
COCC(=O)OCC(=O)Nc1cc([N+](=O)[O-])ccc1Cl | 0.8% | 1.3% | -2.3% | 7.1

Remaining list, next part.
SMILES | Rango-impB inh | Rango release inh | miR-21 reporter | GLA inh pH 4.5
O=C(CCNC(=O)Cn1ccc2ccccc2c1=O)NCc1ccccn1 | -3.6% | -12.2% | -0.8% | -4.2
COc1cc(CC(=O)OCC(=O)c2c[nH]c3ccccc23)cc(OC)c1OC | 2.3% | -9.4% | nt | nt
O=C(N/N=C1\CC(c2ccccc2)Oc2ccccc21)c1ccc(O)cc1 (stereo not given) | 9.5% | 4.2% | -14.7% | nt
CCC(C)[C@H](N)c1cn([C@@H](Cc2ccc(O)cc2)C(=O)N2CCNCC2)nn1 (stereo not given in full) | 0.4% | ? | -2.1% | 4.0
Cn1c2ccccc2c2cc(C(=O)NNS(=O)(=O)c3ccc(F)cc3)sc21 | -3.4% | 18.5% | 2.9% | 0.6
COc1ccc(OC)c(NC(=O)CSc2nnc(-c3ccco3)o2)c1 | 0.6% | -11.1% | -4.7% | nt
CCc1sc(C(=O)Nc2ccc3c(c2)OCO3)cc1C | 0.2% | -1.6% | nt | nt
CC(OC(=O)CNC(=O)c1cccs1)C(=O)Nc1ccc(S(N)(=O)=O)cc1 (stereo not given) | 0.2% | 5.5% | nt | nt
O=C1C2CCCCN2C(=O)N1CCN1CCN(c2cccc(Cl)c2)CC1 (stereo not given) | -3.0% | 2.0% | nt | nt
COC(=O)CN1C(=O)[C@H]2[C@@H](/C=C/c3ccccc3)N3C(=O)CN(CCO)C(=O)[C@@]3(Cc3ccccc3)[C@H]2C1=O | -0.9% | 7.4% | 0.8% | nt
CCCCCN(C(=O)CCC(=O)OCC(=O)N(C)Cc1ccc(C)cc1)c1c(N)n(CCCC)c(=O)[nH]c1=O | 1.4% | -1.8% | -2.4% | nt
O=C(CNC(=O)c1ccc2c(c1)OCCO2)N=Nc1c(O)[nH]c2ccccc12 | -3.2% | 6.6% | -7.3% | nt

Entries from the list above with a thiophene ring, fused or not (nine):
SMILES | Rango-impB inh | Rango release inh | miR-21 reporter | GLA inh pH 4.5
C(=N\c1nc2ccccc2[nH]1)/c1cccs1 | -7.0% | -8.1% | -5.1% | 10.4
CC(=O)Nc1ccc2c(c1)N(S(=O)(=O)c1cccs1)CCC2 | 1.8% | -7.2% | nt | nt
CCCn1cnc2sc(CC)cc2c1=O | -0.6% | -10.7% | -36.7% | 0.5
Nc1c(C(=O)N2CCCCC2)sc2nc3c(cc12)CCCC3 | ? | -16.5% | -69.8% | nt
CCCc1cc(C(=O)Nc2sc3c(c2C(=O)OCC)CCCC3)no1 | 4.4% | -6.8% | -3.9% | 6.4
Cc1cc(C)cc(NC(=O)c2sc3nc4n(c(=O)c3c2C)CCC4)c1 | -0.5% | -6.4% | -0.4% | nt
Cn1c2ccccc2c2cc(C(=O)NNS(=O)(=O)c3ccc(F)cc3)sc21 | -3.4% | 18.5% | 2.9% | 0.6
CCc1sc(C(=O)Nc2ccc3c(c2)OCO3)cc1C | 0.2% | -1.6% | nt | nt
CC(OC(=O)CNC(=O)c1cccs1)C(=O)Nc1ccc(S(N)(=O)=O)cc1 (stereo not given) | 0.2% | 5.5% | nt | nt

Some of the compounds tested; rates above refer to the full screens.
